# 2A Renilla: lowers the Renilla signal of an FMDV 2A StopGo reporter. 120,000 compounds, 0.32% hits. AID 1745857. Potency, µM (series often up to 57.5 µM), for inactives: top-dose signal change, negative = less light. HEK cells with a luciferase reporter of 2A StopGo recoding; active means well fitted falling curve with a large enough effect; inconclusive means small, poorly fitted or top-dose-only effect; inactive means no such curve, though single readings can be large or run the other way; further: nearly all actives have a fitted effect of over 55% in size; overnight with compound
# StopGo FLuc: lowers the firefly signal of an FMDV 2A StopGo reporter | 120,000 compounds, 0.23% hits | AID 1745856 | HEK cells with a luciferase reporter of 2A StopGo recoding | Potency, µM (doses to about 57.5 µM), for inactives: at the highest dose signal change, negative = less light; active = well fitted falling curve with a large enough effect; inconclusive = small, poorly fitted or top-dose-only effect; inactive = no such curve, though single readings can be large or run the other way; further: nearly all actives have a fitted effect of over 60% in size; overnight with compound
# The depositor's hits bear a star; ? = inconclusive; [ ] = remark or other dose. On the % scale 0 is the no-effect control and ±100 the full control effect; potency means the concentration at half of the fitted maximal effect. The order is random, and some 0.53% of all compounds hit somewhere here.
SMILES,2A Renilla,StopGo FLuc
COCCNC(=O)c1cc2cc(S(=O)(=O)N3CCCCC3)ccc2n1C,23%,0%
COc1ccc(NC(=O)Nc2sc3nc4n(c(=O)c3c2C)CCC(C)CC4)cc1OC (stereo not given),0%,-19%
COCCCNc1oc(-c2ccc(S(=O)(=O)N3CCCCCC3)cc2)nc1C#N,168%[activator],11%
CC(C)c1nnc(Sc2nc(C(F)(F)F)nc3ccccc23)n1C1CC1,28%,61%[activator]
CC(O)CN(c1ccccc1)S(=O)(=O)c1cc(C(=O)O)cc2c1CCC2 (stereo not given),3%,-2%
CCOc1ccc(CNC(=O)Cn2cc3c(n2)-c2c(oc(C(=O)N4CCCC4)c2C)CC3)cc1,16%,3%
Fc1ccc([C@@H]2CCNC[C@H]2COc2ccc3c(c2)OCO3)cc1,-12%,-22%
O=C(CCn1cnnn1)Nc1cc(C(F)(F)F)cc(C(F)(F)F)c1,?,?
CCOc1ccc(CN(C)C(=O)Cn2cnc3c(cnn3C)c2=O)cc1OC,-5%,2%
Cc1ccccc1N(C)C(=O)c1noc2c1COc1ccccc1-2,10%,44%[activator]
CC1CS(=O)(=O)N(c2ccc(S(=O)(=O)NCc3ccc(Cl)cc3)cc2)C1=O (stereo not given),3%,-12%
CN(C)CCNC(=O)c1cc2ccccc2oc1=O,-7%,9%
COc1cc(OC)c(NC(=O)Cc2c(C(=O)O)c(C)cn2C)cc1Cl,4%,-13%
Cc1ccc(CCNC(=O)CCCn2nc(C)c3c(C)n(-c4ccccc4)nc3c2=O)cc1,32%[activator],51%[activator]
CC(C)(C)C(=O)Cn1c(=O)n(-c2ccc(Cl)c(Cl)c2)c(=O)c2c3c(sc21)CCCC3,-3%,-1%
Cc1cccc(C)c1NC(=O)CSCc1cnn(-c2ccccc2)c1-n1cccc1,-9%,0%
Cc1ccc(S(=O)(=O)[C@H]2CS(=O)(=O)C[C@@H]2NC(C)C)cc1,-5%,12%
COC(=O)C1C(=O)CC(C)(O)C(C(=O)OC)C1c1ccc(C(C)C)cc1 (stereo not given),-1%,11%
COC(=O)c1cc(NC(=O)CCc2c(C)nc3nc(C)nn3c2C)cc(C(=O)OC)c1,-1%,-2%
Cc1ccc(C)c(NC(=O)Cn2c(=O)n(-c3ccccc3C)c(=O)c3c2c2cc(C)ccc2n3C)c1,-9%,-2%
CCN1CCN(c2cc(C)c3cc(NC(=O)c4cc(Cl)ccc4OC)ccc3n2)CC1,-7%,-11%
COc1ccc(CNC(=O)Cn2nnc(-c3ccc(S(C)(=O)=O)cc3)n2)cc1,-4%,-24%
O=C(Nc1ccc(F)c(Cl)c1)N1CC=C(c2c[nH]c3ccccc23)CC1,-21%,23%
Cc1ccc2c(c1C)NC(C)CC2C (stereo not given),11%,9%
CN(CCCN)C1CCCCC1,-19%,3%

# Rewritten with two lines to a compound: part of the list above
# Each structure is followed by: 2A Renilla | StopGo FLuc
Fc1ccc([C@@H]2CCNC[C@H]2COc2ccc3c(c2)OCO3)cc1
  -12% | -22%
CC1CS(=O)(=O)N(c2ccc(S(=O)(=O)NCc3ccc(Cl)cc3)cc2)C1=O (stereo not given)
  3% | -12%

# Remaining list, next part
SMILES,2A Renilla,StopGo FLuc
COc1ccc(C(=O)c2c(N)c(-c3nc(-c4ccc5c(c4)OCO5)cs3)c3ccccn23)cc1,10%,59%[activator]
O=C(CN1C(=O)CSc2ccc(S(=O)(=O)N3CCCCC3)cc21)NCc1ccc(F)cc1Cl,-28%,?
Cc1ccccc1-c1nnc(CN2CCN(c3ccccn3)CC2)o1,-7%,6%
COc1ccc(CC(=O)NO)cc1OC,1%,0%
Cn1c(=O)n(CCC(=O)NCc2nnc3n2CCC3)c2ccccc21,-11%,-1%
Cc1ccc(CCNC(=O)C(C)n2nc(C)c3c(C)n(-c4ccc(C)cc4)nc3c2=O)cc1 (stereo not given),13µM*,?
CCOc1ccc(NC(=O)Nc2ccc3nc(N4CCOCC4)cc(C)c3c2)cc1,50%[activator],70%[activator]
CC1=C(C(N)=O)C(c2cccc(C)c2)n2nc(-c3cccc(C)c3)nc2N1 (stereo not given),-6%,-6%
CCc1nnc(Cn2cnc3scc(-c4ccccc4)c3c2=O)o1,3%,3%
CCCNc1c(NC(=O)NCc2ccc(C)cc2)c(=O)oc2ccccc12,-10%,-6%
CCc1cccc(NC(=O)Cn2c(=O)ccc3cc(S(=O)(=O)N4CCC(C)CC4)ccc32)c1,-3%,-19%
COc1cc2c(c(OC)c1)C(c1cccc(Cl)c1Cl)C1=C(CCCC1=O)N2 (stereo not given),6%,10%
CC(C(=O)Nc1ccc(F)c(F)c1)N1CCC(C(=O)NCc2ccccc2)CC1 (stereo not given),-2%,2%
CCOc1ccc(NS(=O)(=O)c2ccc3[nH]cc(C(=O)NCCOC)c(=O)c3c2)cc1,9%,-16%
Cc1cc(C)nc(N/N=C/c2ccc([N+](=O)[O-])cc2)n1,-1%,63%[activator]
CCn1c(SCC(=O)Nc2ccnn2C2CCCC2)nnc1C1CC1,5%,3%
Cc1noc(Cn2cnc3ccc(Br)cc3c2=O)n1,-15%,-7%
Cc1cc(SCC(=O)NC(=O)NC2CC2)nc2ccccc12,2%,20%
CCCCOc1cccc(C(=O)Nc2ccc3oc(-c4ccncc4)nc3c2)c1,-4%,23%
Cc1noc(-c2ccc(-c3noc(-c4ccc([N+](=O)[O-])c(C)c4)n3)cc2)n1,-8%,-1%
Cn1c(=O)[nH]c(=O)c2c1nc(Nc1cc(Cl)ccc1Cl)n2CC(=O)O,27%,42%[activator]
CN(C)S(=O)(=O)c1ccc(-c2nc(C#N)c(NCCCN3CCOCC3)o2)cc1,24%,0%
COc1ccc2cc(CNC(=O)C(C)C)ccc2c1,15%,0%
Cc1[nH]c2ccccc2c1C(=O)C(=O)NC1CC(=O)N(c2cccc(F)c2)C1 (stereo not given),-1%,-8%
CCC(C(=O)Nc1ccc(C(=O)OC)cc1)n1nc(-c2ccc(C)c(C)c2)ccc1=O (stereo not given),1%,17%
SMILES,2A Renilla,StopGo FLuc
Cc1ccccc1COc1ccccc1C(=O)O,-4%,-12%
CN(C(=O)COC(=O)c1ccccc1-c1nc2ccccc2s1)C1CCCCC1,39%[activator],65%[activator]
CC(C)c1ccc(OCC(=O)N2CCN(CCc3ccncc3)CC2)cc1,-4%,96%[activator]
COc1cc(-c2nnc(SCC(=O)N3CCCc4ccccc43)o2)cc(OC)c1OC,27%,-2%
CCOC(=O)N1CCc2c(sc3c2c(=O)n(CCc2ccccc2)c(=O)n3Cc2c(F)cccc2Cl)C1,-7%,-9%
COc1ccc(-c2noc(CCCC(=O)Nc3ccc(S(=O)(=O)N4CCCCCC4)cc3)n2)cc1,?,32µM*
Cc1cccc(N2CCN(C(=O)Cn3ncc4c5ccccc5n(C)c4c3=O)CC2C)c1 (stereo not given),-10%,-3%
COc1ccc(-c2csc(N3N=C(C)CC3c3cccc(OC)c3OC)n2)cc1 (stereo not given),45%[activator],25%
Cc1ccc(NC(=O)N2CCc3c([nH]c4ccccc34)C2c2ccccc2F)c(Cl)c1 (stereo not given),40%[activator],21%
COc1ccc(-c2nc3cc(C)ccn3c2NC(=O)c2cccc(F)c2)cc1,6%,60%[activator]
Cc1ccc(Nc2c3c(nc4ccccc24)CCC3)cc1,?,?
COc1ccc(NC(=O)CSC2=Nc3ccccc3C3=NC(CCC(=O)NCc4ccco4)C(=O)N23)cc1 (stereo not given),-8%,-30%
COc1ccc(CC(=O)Nc2cccc(NC(=O)C(C)n3cccn3)c2)cc1F (stereo not given),4%,6%
CN1CCN(c2ccc(NC(=O)c3ccccc3Cl)nc2)CC1,-6%,142%[activator]
CCCSc1ncc(Cl)c(C(=O)N(Cc2ccc(Cl)cc2)Cc2ccco2)n1,0%,-1%
O=C(NCCNC(=O)c1cc2ccccc2[nH]1)C(=O)N1CCCC1,-7%,-4%
CN(C)C1(CNC(=O)c2ccc(NC(=O)c3ccco3)cc2)CCCCC1,-3%,8%
COc1ccc(CCNC(=O)CCc2c(C)nc3nc(C)nn3c2C)cc1OC,3%,16%
Cc1ccc(Nc2nc(-c3sc(C)nc3C)cs2)cc1,?,19%
CCc1ccccc1NC(=O)CSc1nnc(COc2ccccc2Cl)o1,-11%,2%
Cc1ccc(Cl)cc1NC(=O)NC1(c2ccccc2)CCC1,16%,87%[activator]
CCN(C(=O)c1ccc(C(=O)N(CC)c2ccccc2C)cc1)c1ccccc1C,-10%,-25%
Cc1ccc(S(=O)(=O)NCCNC(=O)c2cn(C)c3ccccc23)cc1,35%[activator],-3%
Cc1cc(-c2ccccc2)nc(Nc2nc(C)c3ccccc3n2)n1,35%,0%
O=C(NCC(=O)N1CCCC(C(F)(F)F)C1)c1ccccc1F (stereo not given),2%,141%[activator]

# 2 entries from above, field by field.
compound: O=C(NCC(=O)N1CCCC(C(F)(F)F)C1)c1ccccc1F (stereo not given)
  2A Renilla: 2%; StopGo FLuc: 141%[activator]
compound: Cc1ccc(NC(=O)N2CCc3c([nH]c4ccccc34)C2c2ccccc2F)c(Cl)c1 (stereo not given)
  2A Renilla: 40%[activator]; StopGo FLuc: 21%

# Following part
SMILES,2A Renilla,StopGo FLuc
O=[N+]([O-])c1ccc(/C=C2/CCCC3C2=NN(c2ccc([N+](=O)[O-])cc2)C3c2ccc([N+](=O)[O-])cc2)cc1 (stereo not given),0%,0%
CCCSc1nnc2c(n1)OC(c1cccs1)Nc1ccc(Br)cc1-2 (stereo not given),3%,59%[activator]
CCOc1ccc(CNC(=O)CCS(=O)(=O)c2cc3c4c(c2)CCN4C(=O)CC3)cc1,-7%,3%
O=C(CCc1c[nH]c2ccccc12)Oc1ccc2ccc(=O)oc2c1,7%[1.06 µM],-14%
O=C(O)C1=CC(c2ccc(Br)cc2)n2ncnc2N1 (stereo not given),-3%,-6%
Cc1cc2oc(=O)cc(CN3CCN(Cc4ccccc4)CC3)c2cc1Cl,-22%,-18%
COc1ccc2[nH]c(C)c(CCNC(=O)c3cc4cc(Cl)ccc4oc3=O)c2c1,-5%,-5%
O=c1cc(-c2ccccc2)oc2ccccc12,90%[activator][114 µM],84%[activator][22.9 µM]
Cc1ccc(C(=O)C(C)C(=O)c2ccc(C)c(C)c2)cc1C,23%,18%
Cc1cc2nc(-c3cccc(NC(=O)COc4ccc(Cl)c(C)c4)c3)oc2cc1C,1%,107%[activator]
COc1ccc(S(=O)(=O)Nc2ccccc2OC)cc1NC(=O)c1[nH]c(C)c(C(C)=O)c1C,0%,11%
O=C(CCc1nc(-c2ccccn2)no1)NCc1ccc(-n2cncn2)nc1,-3%,11%
COC(=O)c1sc(N2C(=O)c3oc4ccc(C)cc4c(=O)c3C2c2ccc(O)c(OC)c2)nc1C (stereo not given),-8%,-2%
C=C(Cl)COC(=O)c1ccc2[nH]c(C)c(C)c2c1,13%,0%
Cc1cc(C)n2c(Nc3ccc4c(c3)OCCO4)c(-c3ccc(Cl)cc3)nc2n1,5%,38%[activator]
C/C(=N\OC(=O)c1ccc(OC(C)C)cc1)c1ccc(C(C)C)cc1,20%,0%
N#Cc1ccsc1NC(=O)CSc1nnc(-c2ccccc2F)n1C1CCCCC1,15%,0%
CC(C)(C)c1cc(Cc2cc(C(C)(C)C)c(O)c(C(C)(C)C)c2)cc(C(C)(C)C)c1O,3%,-1%
CN1CCN(C(c2ccc(F)cc2)c2sc3nc(-c4ccco4)nn3c2O)CC1 (stereo not given),12%,0%
Cc1ccc(N(CC(O)Cn2c3ccccc3c3ccccc32)S(=O)(=O)c2ccc(F)cc2)cc1 (stereo not given),2%,?
COc1ccc(-c2nc(SCC(=O)NCCCc3ccccc3)n[nH]2)cc1,?,-7%
CCOc1cc(/C=C/C(=O)c2ccc(C3CCCCC3)cc2)ccc1OC,-13%,4%
COc1cccc(Nc2nc3ccccc3nc2C(=O)OCC(C)C)c1,17%,180%[activator]
Cc1cc(C)c2oc(-c3cccc(NC(=O)c4cccc(F)c4)c3C)nc2c1,-4%,5%
CCN1CCC(N(Cc2ccc(F)cc2)C(=O)Nc2cc(C)ccc2C)CC1,-15%,-27%

# 6 structures out of the list, ordered by length of the SMILES, rising.
SMILES,2A Renilla,StopGo FLuc
C=C(Cl)COC(=O)c1ccc2[nH]c(C)c(C)c2c1,13%,0%
COc1ccc(-c2nc(SCC(=O)NCCCc3ccccc3)n[nH]2)cc1,?,-7%
O=C(CCc1nc(-c2ccccn2)no1)NCc1ccc(-n2cncn2)nc1,-3%,11%
CN1CCN(C(c2ccc(F)cc2)c2sc3nc(-c4ccco4)nn3c2O)CC1 (stereo not given),12%,0%
COc1ccc2[nH]c(C)c(CCNC(=O)c3cc4cc(Cl)ccc4oc3=O)c2c1,-5%,-5%
COc1ccc(S(=O)(=O)Nc2ccccc2OC)cc1NC(=O)c1[nH]c(C)c(C(C)=O)c1C,0%,11%

# Carrying on.
SMILES,2A Renilla,StopGo FLuc
COc1ccc(NC(=O)CC2C(=O)N(c3ccc(C)cc3)C(=O)N2Cc2ccc3c(c2)OCO3)cc1 (stereo not given),63%[activator],12%
CC(C)(C)OC(=O)N1CCC(c2c(C(=O)NCc3ccccc3)cnn2-c2ccccc2)CC1,26%,-17%
COc1ccccc1CNC(=O)Cn1c(=O)oc2cc(S(=O)(=O)NCc3ccccc3)ccc21,22%,?
COc1ccc(NC(=O)Cn2nc(-c3ccccc3)c3cnc4ccc(C)cc4c32)cc1,-20%,-2%
CCc1ccc(S(=O)(=O)NCC(=O)O)cc1,57%[activator],47%[activator]
CC(C)OCc1ccccc1CNC(=O)c1nccnc1N,27%,20%
COc1cccc(NC(=O)c2c(-c3ccccc3)oc3ccc(OC)cc23)c1,19%,4%
O=C(Cc1c[nH]c2ccccc12)Nc1cccc2ccccc12,9%,1%
CC(C(=O)NCc1ccccc1)N1Cc2ccccc2C1=O (stereo not given),5%,-22%
CN(C)c1ccc(CNC(=O)Cn2c(=O)oc3cc(S(=O)(=O)NCc4ccccc4)ccc32)cc1,39%[activator],?

# Screening data as filed in PubChem BioAssay.
